Assay outcomes as filed in PubChem BioAssay.
VDR inhibitor: Inhibitors of the vitamin D receptor (VDR): qHTS; Vitamin D3 receptor (Homo sapiens), P11473; VDR-SRC2-3 peptide fluorescence polarization, 2 h; Potency, µM, for the others: max response, negative = inhibition, usual class: inhibitors; 400,000 compounds, 0.93% hits; active means well fitted inhibition curve with a large enough effect; inconclusive means small, poorly fitted or top-dose-only effect, or another doubt; inactive means no such curve, though single readings can be large or run the other way; further: series mostly up to about 120 µM
Target sequence (P11473 whole entry, looked up): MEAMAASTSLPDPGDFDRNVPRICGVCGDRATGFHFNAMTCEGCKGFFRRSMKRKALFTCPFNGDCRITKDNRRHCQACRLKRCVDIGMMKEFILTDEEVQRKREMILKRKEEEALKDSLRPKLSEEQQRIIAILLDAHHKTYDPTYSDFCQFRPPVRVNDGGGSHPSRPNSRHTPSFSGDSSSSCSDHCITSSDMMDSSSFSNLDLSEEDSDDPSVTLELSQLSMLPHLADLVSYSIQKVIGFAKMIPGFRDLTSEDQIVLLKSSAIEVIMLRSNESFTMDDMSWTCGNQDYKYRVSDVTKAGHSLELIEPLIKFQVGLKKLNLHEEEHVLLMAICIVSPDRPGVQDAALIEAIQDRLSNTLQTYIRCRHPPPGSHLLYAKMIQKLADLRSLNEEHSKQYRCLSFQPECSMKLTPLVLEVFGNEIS
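Fluorescence polarization assay of small-molecule disruption of VDR binding to coregulator peptide SRC2-3. Compounds and controls pin-transferred, then read after 2 h incubation at ambient room temperature.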
Active calls of the source: *; ? = inconclusive; & = joins results of further samples. On the % scale 0 is the no-effect control and ±100 the full control effect; potency means the concentration at half of the fitted maximal effect. These rows are one share of the data (hit frequency here may not be typical).

Compound | VDR inhibitor
CC(OC(=O)C1CC1)C(=O)Nc1ncc(Cl)cc1Cl (centres undefined) | -2.3%
COCCC(=O)N1CCC(Oc2ccc(C(=O)N3CCCC(OC)C3)cc2)CC1 (centres undefined) | -11.9%
CC(C)N1CCN(Cc2ccccc2-c2ccco2)CC1CCO (centres undefined) | 1.1%
Cc1noc(C)c1CSCC(=O)OCc1nc2ccccc2c(=O)n1CC#N | 3.6%
CC(C)CCOc1ccc(C(=O)N2CCCC2C(=O)O)cc1 (centres undefined) | 0.5%
CCCCC(=O)Nc1cccc(OCc2cc(=O)n3ccccc3n2)c1 | 21.4%
COC(=O)C(C)Sc1nc2c(c(=O)[nH]c(=O)n2C)n1CCC(C)C (centres undefined) | 19.7%
O=C(O)CSc1c2ccccc2cc2ccccc12 | 70.8µM*
O=c1cc(C(F)(F)F)[nH]c2ccc(OC(F)(F)F)cc12 | -10.3%
CC(NC(=O)C1CCCN1S(=O)(=O)c1ccc2c(c1)n(C)c(=O)c(=O)n2C)c1ccccc1 (centres undefined) | 24.7%
CCOc1ccc(NC2=NCC(=O)N2Cc2cccs2)cc1 | 15.5%
CCC(C)[C@H](NC(=O)OC(C)(C)C)c1nnc(SCc2c(C)[nH]c(=O)[nH]c2=O)o1 (some centres undefined) | -7.7%
Cc1cccc(C(=O)NCCCN2CCCC2=O)c1 | -0.8%
O=C(NCc1ccccc1)c1ccc2c(c1)N(Cc1ccc(F)cc1)CCS2 | -14.6%
COc1ccc(C2=NS(=O)(=O)N(C)C(C(=O)NC(C)c3ccccc3)=C2)cc1OC (centres undefined) | -16.1%&6.0%
CSc1nnc(-c2cc[n+](C)cc2)n1CCO | -0.1%
O=C(O)c1ccc(NCc2ccc(Br)cc2)cc1 | -5.6%
Clc1ccc(SCc2cc(-c3ccccc3)on2)cc1 | 3.7%
CC(=O)c1c(C(C)=O)c(C)n(C(c2ccccc2)c2ccccc2)c1C | -5.8%
Cc1ccccc1NC(=O)OCc1cccnc1Sc1ccc(Cl)cc1 | 4.0%
COc1cc(NC(=O)CSc2nccn2C)cc(OC)c1OC | 19.6%
CCN(Cc1ccccc1)S(=O)(=O)c1ccc(C(=O)N(CCCN(C)C)c2nc3cc(OC)ccc3s2)cc1 | -5.7%
O=C(Nc1nccs1)C1CCN(S(=O)(=O)c2ccc(Cl)c(C(F)(F)F)c2)CC1 | -3.6%
CCNc1nc(NCC)n2c(SCC(=O)Nc3ccccc3OC(F)F)nnc2n1 | 5.4%
COc1ccc(/C=C/C(=O)OCC(=O)NCc2ccccc2)cc1OC | -17.7%
CCCC(=O)Nc1ccc(C(=O)O)cc1NC(=O)CCC | 0.3%
O=C(CSc1nc2ccccc2c(=O)n1CC1CCCCC1)N1CCOCC1 | ?
CCOC(=O)C1(CCc2ccccc2)CCN(C(=O)CCn2cncn2)CC1 | -7.0%
CN(C)c1nc(OCCNC(=O)Nc2ccccc2)nc(N2CCCCC2)n1 | -11.5%
COc1ccccc1NC(=S)NC1CCCC1 | 4.8%
COC(=O)c1ccc(C(=O)OC)c(NC(=O)c2c(-c3ccccc3)noc2C)c1 | 3.5%
Cc1ccccc1-n1c(SC(C)C(=O)N2CCN(C)CC2)nc2ccccc2c1=O (centres undefined) | 6.5%
COCCOC(=O)C1=C(C)NC(=O)N(C(C)=O)C1c1ccc(Cl)cc1 (centres undefined) | -4.9%
Cn1c(SCC(=O)Nc2ccccc2[N+](=O)[O-])nnc1C(F)(F)F | -8.1%
OCC[C@@H]1C[C@@H](O)[C@H](O)[C@@]2(CCCO2)O1 | 4.0%
CC(C(=O)Nc1ccccc1C(F)(F)F)n1nc(-c2ccccc2)c2c(c1=O)CCCC2 (centres undefined) | 9.8%
CCCc1cc(N2CCN(c3ccccc3)CC2)n2cnnc2n1 | 9.4%
CCOc1ccc(NS(=O)(=O)c2ccc(-c3coc(C)n3)cc2)cc1 | -6.4%
Cc1ccccc1C(=O)Nc1ccc(S(=O)(=O)Nc2onc(C)c2C)cc1 | 5.0%
Cc1sc2ncn(CC(=O)NCCCC(=O)N3CCCCC3)c(=O)c2c1C | -3.4%

Pulled by compound from above (6):
Compound | VDR inhibitor
Cc1ccccc1-n1c(SC(C)C(=O)N2CCN(C)CC2)nc2ccccc2c1=O (centres undefined) | 6.5%
CN(C)c1nc(OCCNC(=O)Nc2ccccc2)nc(N2CCCCC2)n1 | -11.5%
CCOC(=O)C1(CCc2ccccc2)CCN(C(=O)CCn2cncn2)CC1 | -7.0%
Cc1ccccc1C(=O)Nc1ccc(S(=O)(=O)Nc2onc(C)c2C)cc1 | 5.0%
CCCc1cc(N2CCN(c3ccccc3)CC2)n2cnnc2n1 | 9.4%
COc1ccccc1NC(=S)NC1CCCC1 | 4.8%

(further entries)
Compound | VDR inhibitor
N#CC1=C(N)SC(C(=O)c2ccccc2)C1c1cccs1 (centres undefined) | 7.6%
CC(C)(C)c1ccc(C(=O)NNC(=O)c2cccc(-n3cnnn3)c2)cc1 | 10.6%
c1ccc(-c2nnc3ccc(N4CCCC4)nn23)cc1 | -19.2%
O=C(NCc1ccccc1)c1cccc(NC(=O)c2ccccc2)c1 | -5.0%
CCCOc1ccc(C(=O)NCc2ccco2)cc1 | 21.8%
Cc1nc(S/C(=C\c2ccc(OCc3ccccc3Cl)cc2)C(=O)O)n[nH]1 | -0.4%
CCn1c(-c2cccc(S(=O)(=O)N3CCCC3)c2)n[nH]c1=S | 13.1%
Cc1cc(NC(=O)CN2C(=O)NC(c3ccccc3)(c3ccc(C)c(C)c3)C2=O)no1 (centres undefined) | -24.6%
COCCCn1c(SCC(=O)NC(C)C)nnc1-c1ccccc1 | -18.1%
C#CCn1c(=NC(=O)c2ccco2)sc2cccc(Cl)c21 | 2.8%
CC(=O)N=C1SC2CS(=O)(=O)CC2N1c1cccc(Cl)c1Cl (centres undefined) | 15.1%
Cc1ccc(-n2cnnn2)c2cccnc12 | -5.1%
COc1ccc(C=O)cc1OC1C=CCCC1 (centres undefined) | -25.7%
COc1ccccc1CNC(=O)CSc1nc2nc(C)c(Cc3ccccc3C)c(C)n2n1 | 4.6%
CC(C)C[C@H](NC(=O)[C@@H]1Cc2ccccc2CN1C(=O)OC(C)(C)C)C(=O)NCC1CCC(C(=O)O)CC1 (some centres undefined) | -21.8%
COc1ccc(NS(=O)(=O)c2cn(C)cn2)cc1OC | 1.0%
CCOc1ccccc1N(C(C)=O)S(=O)(=O)c1ccc(Cl)cc1 | -20.6%
COCCNC(=O)c1cccc(Nc2nc3ccccc3n3nnnc23)c1 | -6.1%
CCN(c1ccccc1)S(=O)(=O)c1ccc(N)c(OC)c1 | 2.3%
COCCn1nnnc1CN1CCSCC1 | 0.8%

Other results:
mol	VDR inhibitor
Cc1cccc(-n2c(=O)cc(N3CCN(c4ccc(F)cc4)CC3)[nH]c2=O)c1	8.4%
COc1ccc(Cl)cc1NC(=O)CN(C)CC(=O)Nc1ccccc1C(F)(F)F	-9.5%
O=C(N/N=C/c1ccc(F)cc1)c1cc(-c2ccccn2)nc2ccccc12	-7.2%
CC(=O)OCc1nc2sc(C)c(C)c2c(=O)[nH]1	2.8%
O=C(Cn1cc2c(n1)CCCC2)NCc1cccc(Cl)c1	-1.0%
CCOC(=O)[C@@H]1[C@H]2COc3ccc(Br)cc3[C@H]2N2C(=O)N(c3ccc(C)cc3)C(=O)[C@@]12C	-12.7%
CCOc1ccccc1NC(=O)N(Cc1ccc(C)o1)C1CCN(C(C)=O)CC1	16.7%
Cc1ccc(NS(=O)(=O)c2ccc(-n3cccn3)cc2)nc1	2.2%
CCc1ccc(NC(=O)C2CCN(S(=O)(=O)c3c(C)noc3C)CC2)cc1	20.8%&-9.9%
Cc1ccc(-c2nn(-c3cccc([N+](=O)[O-])c3)c3c2cnc2ccc(F)cc23)cc1	12.1%
O=C(CCc1nnc(COc2ccccc2)o1)NCc1ccccc1C(F)(F)F	5.1%
CCOCc1nnc(NC(=O)C2CCN(C(=O)C3CC(=O)N(c4ccc(C)cc4)C3)CC2)s1 (centres undefined)	8.5%
CCNC(=O)CSc1nnc(-c2ccc(OC)cc2)n1CC(C)C	-0.3%
O=C(c1cccc(Cl)c1)N1CCN(Cc2c[nH]c3ccccc23)CC1	14.9%
CC(C)(C)c1ccc(OCCSc2nc3ccccc3n2CC(=O)O)cc1	-0.4%
CC(C)CCn1c(SCc2ccc(F)cc2Cl)nc2ccsc2c1=O	8.0%
COc1cccc(NC(=O)CNC(=O)c2ccc(F)cc2)c1	-3.6%
COc1ccc(C(=O)COc2ccc3c(C)cc(=O)oc3c2)cc1	-5.8%
CC1CCCN(C(=S)Nc2ccc(Nc3ccccc3)cc2)C1 (centres undefined)	?
COc1ccc(OC)c(NC(=S)N2c3ccccc3CC2C)c1 (centres undefined)	7.4%
CCC(=O)N1CCc2cc(S(=O)(=O)N3CCN(c4ccccc4)CC3)ccc21	-11.0%
CNC(=S)N/N=C/c1ccc(-c2ccc(Cl)c([N+](=O)[O-])c2)o1	6.3%
Cc1ccccc1C1CC(c2ccc(Br)cc2)Nc2nc(N)nn21 (centres undefined)	-5.9%
CC1CCCN(Cc2nc3c(c(=O)n(C)c(=O)n3C)n2Cc2c(F)cccc2Cl)C1 (centres undefined)	3.2%
COc1ccc(S(=O)(=O)N2CCN(c3nc(-c4ccccc4)nc4ccccc34)CC2)cc1	-9.4%
O=C(CSCC(=O)OCC(=O)c1ccc(Br)cc1)Nc1cccc2ccccc12	11.2%
Cc1cc(C(=O)NNC(=S)Nc2ccccc2)nn1C	8.6%
S=C(NCc1ccc(Cl)cc1)Nc1ccc(Cl)cc1Cl	-18.7%
O=C(CCN1C(=O)/C(=C/c2ccccc2Cl)SC1=S)NCCc1ccc(O)cc1	-7.5%
Cc1ccc(CN(N=Nc2nonc2N)c2nonc2N)c(C)c1	-4.5%
COc1ccc(-c2cn3c(C)c(C(=O)NCc4ccc5c(c4)OCO5)sc3n2)cc1	-27.3%
O=C(O)CC/C(=C\c1cc2c(cc1Br)OCO2)c1nc2ccccc2s1	?
Cc1cccn2cc(-c3cccc(NS(=O)(=O)c4ccc(Cl)c(Cl)c4)c3)nc12	-12.2%
Cc1cc(C)cc(OCC(=O)Nc2nonc2NC(=O)COc2cc(C)cc(C)c2)c1	17.5%
CCOc1ccccc1NC1(c2ccccc2)C(=O)c2ccccc2C1=O	-1.0%
COCCn1c(=O)c(-c2ccccc2)nc2cnc(N(C)C)nc21	-7.0%
COC(=O)c1ccc(CNCC(=O)Nc2ccc(C(=O)OC)cc2)cc1	29.4%
CC1CCCCN1C(=O)CSCC(=O)Nc1nc(-c2cccs2)cs1 (centres undefined)	-8.9%
N#CCCn1c(=O)c(-c2cc(F)cc(F)c2)nc2cnc(Oc3cccc(Cl)c3)nc21	?
Cc1ccc2c(=O)cc(C(=O)N(Cc3ccc(N(C)C)cc3)C3CCS(=O)(=O)C3)oc2c1 (centres undefined)	11.0%
CC1(C)CN(c2ccc(C(=O)c3ccccc3)cc2)C1=O	-6.3%
CCOc1ccc(CN(C)C(=O)c2ccc(S(=O)(=O)N(C)c3ccccc3OC)cc2)cc1	0.1%
C[N+]1(C)CCC(=C2c3ccccc3CC(=O)c3sccc32)CC1	-20.5%
O=C(COc1ccccc1)NCC1(N2CCCCC2)CCCCC1	-10.3%
CCCCN(C)C(=O)CS(=O)(=O)Cc1nc(-c2cccc(OC)c2)oc1C	-10.0%
COc1ccc(CCN2CC(C(=O)NCCc3ccc(C)cc3)CC2=O)cc1OC (centres undefined)	-13.3%&2.1%
Cc1cccc(CSc2nc3c(c(-c4cccs4)c2C#N)CN(C)CC3)c1	?
Nc1ccc(S(=O)(=O)NN=Cc2ccccc2[N+](=O)[O-])cc1	1.5%
CCOC(=O)c1ccc(NC(=O)CSc2cc(=O)n(CC)c3ccccc23)cc1	2.3%
O=C(COC(=O)c1nc(Cl)ccc1Cl)Nc1ccc(Cl)cc1	15.0%
Cc1nn(-c2ccccc2)c(-c2ccccc2)c1C(=O)O	4.0%
O=C(CCn1c(=O)c2cccn2c2cccnc21)NCc1cccc(Br)c1	10.5%
Cn1cc(CC(=O)Nc2cccc(C#N)c2)c2ccccc21	-10.3%
O=C(c1ccc2c(=O)n(Cc3ccc(Cl)cc3)c(=S)[nH]c2c1)N1CCOCC1	-5.5%
COc1ccc(N2CCN(C(=O)c3ccc(C)c(NC(=O)c4nsc5ccccc45)c3)CC2)cc1	4.1%
CSc1ccccc1NC(=O)c1c(Br)cnn1C	15.6%
CN(C)C(CNC(=O)c1ccc2nc[nH]c2c1)c1ccccc1 (centres undefined)	-0.6%
COc1cc(NCc2ccccc2)c2ncn(Cc3ccccc3)c2c1	13.3%
CCOC(=O)c1cc(S(=O)(=O)N2CCN(C3CCCCC3)CC2)cn1C	-19.0%
O=C(NN1C(=O)C2C3C=CC([C@@H]2C1=O)C31CC1)c1ccccc1 (some centres undefined)	-12.8%

Look-ups from above.
`O=C(CCn1c(=O)c2cccn2c2cccnc21)NCc1cccc(Br)c1` @ VDR inhibitor: 10.5%
`Cc1cc(C)cc(OCC(=O)Nc2nonc2NC(=O)COc2cc(C)cc(C)c2)c1` @ VDR inhibitor: 17.5%
`CN(C)C(CNC(=O)c1ccc2nc[nH]c2c1)c1ccccc1` (centres undefined) @ VDR inhibitor: -0.6%

Continuation.
mol	VDR inhibitor
CCc1ccc(N2CC(C(=O)Nc3cc(C)on3)CC2=O)cc1 (centres undefined)	-17.3%
CN(C)CCC(C(=O)c1ccccc1)c1cccnc1 (centres undefined)	-5.5%
COc1ccc(C(=O)Nc2cccc(NC(=O)c3cccs3)c2)cc1OC	-0.3%
COCCNC(=O)c1noc2c1CCc1cc(OC)ccc1-2	-5.1%
CCc1ccc2nc(SCC(=O)N3CCCCC3)c(C#N)cc2c1	-5.7%
N#Cc1sc2nccc(Nc3ccccc3)c2c1N	-4.3%
